High-throughput results (PubChem BioAssay)
RanGTP-Imp inh = inhibitors of RanGTP-importin-beta interaction, primary screen, biochemical, FRET, CFP-Ran, YFP-importin-beta, homogeneous | 1.1% of 300,000 active | inhibition, % (concentration not given with the values) | cell-free CFP-Ran/YFP-importin-beta FRET ratio | Ran GTPase (GTP-bound) - importin-beta complex;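 active = most replicates above 15%; inconclusive = exactly half above 15%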;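 also: 0% = DMSO wells and 100% = Ran loaded with GDP instead of GTP; wells of about 40 µL received 100 nL stock; the first replicate is given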
AF4-AF9 inh = inhibitors of AF4 peptide binding to AF9, primary screen, biochemical, AlphaScreen, biotin-AF4 peptide, FLAG-AF9, single point; 0.47% of 350,000 active; Protein AF-9 (Homo sapiens), P42568; inhibition, % at 10 µM; AID 651704, 2012;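 active = every replicate reaching a set inhibition limit, whatever the replicate mean, cut at about 25% in these data; inconclusive = mean inhibition reaches that limit but some replicates miss it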;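 also: 0% = plate neutral control median and 100% = total signal loss; the record names both 10 and 1 µM as test concentration; the first replicate is given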
Target sequence (P42568 whole entry, looked up): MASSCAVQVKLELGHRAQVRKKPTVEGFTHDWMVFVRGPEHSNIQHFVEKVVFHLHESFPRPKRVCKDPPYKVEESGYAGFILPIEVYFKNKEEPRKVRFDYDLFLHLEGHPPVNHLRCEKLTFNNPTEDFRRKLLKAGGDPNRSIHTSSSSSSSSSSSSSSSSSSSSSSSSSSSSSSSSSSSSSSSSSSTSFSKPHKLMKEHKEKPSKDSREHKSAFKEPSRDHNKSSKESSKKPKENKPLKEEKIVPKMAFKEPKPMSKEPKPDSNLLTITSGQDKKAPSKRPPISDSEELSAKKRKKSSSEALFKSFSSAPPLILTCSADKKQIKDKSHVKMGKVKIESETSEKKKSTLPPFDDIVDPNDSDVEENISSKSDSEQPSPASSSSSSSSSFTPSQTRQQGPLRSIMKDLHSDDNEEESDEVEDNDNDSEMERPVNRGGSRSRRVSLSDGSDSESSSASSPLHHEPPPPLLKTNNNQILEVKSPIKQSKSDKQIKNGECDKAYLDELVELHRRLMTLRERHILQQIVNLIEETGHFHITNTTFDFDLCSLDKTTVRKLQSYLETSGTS
T cruzi inh = inhibitors of intracellular T. cruzi growth, primary screen, luminescence, NIH3T3 host cells. T. cruzi beta-gal in NIH3T3, 90 h. 1.4% of 300,000 active. inhibition, % (no concentration beside the values);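 active = mean inhibition across valid replicates above about 55%, limit read from the data; inconclusive = mean below that limit but half or more replicates reach it; inactive = mean below it, under half of replicates reach it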;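 also: signal also drops with host cell toxicity which is not excluded here; 0% = plate median of DMSO wells and 100% = zero luminescence signal; higher percent means less beta-gal luminescence so fewer parasites; stock transfer was 50 nL into about 50 µL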
Bfl-1 A1 inh = caspase 3/7 activation in MEF A1-2A-BIM cells, primary screen, A1 inhibitor project, cell-based, luminescence, HTS. Caspase-Glo 3/7 luminescence, 3 h; percent of clofoctol response, vehicle zero. 0.066% of 330,000 active. AID 2462, 2010. caspase activation, % (concentration not given with the values);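 active = over half of replicate activation scores above 10%, or exactly half above 10 with the replicate mean above 10; inconclusive = replicate mean below 10 yet half the replicates above 10; inactive = over half of replicates below 10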;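 also: wells of about 30 µL received 50 nL stock; many hits fall short of the cut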
Calb FLC = C. albicans growth inhibition with fluconazole, primary screen, CaCi-2 strain, Alamar Blue fluorescence; C. albicans CaCi-2 (fluconazole-resistant clinical isolate) + fluconazole, 48 h; growth inhibition, % (concentration not given with the values); 0.57% of 300,000 active;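 active = most replicates above 75%; inconclusive = exactly half above 75%; inactive = most below 75%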;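 also: all wells also contain fluconazole at 8 µg/ml as a sub-toxic cotreatment; 0% = median of DMSO wells and 100% = median of geldanamycin control wells; wells of about 8 µL received 7.5 nL stock; the first replicate is given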
rRNA inh HTS = reduced GFP signal of wild-type E. coli, primary screen, bacterial rRNA inhibitor project, GFP/RFP fluorescence, OD600, single point; E. coli WT GFP vs humanized-ribosome RFP mutants, 24 h; active compounds read low; DMSO median 0, no signal -100; 1.6% of 350,000 active; GFP signal change (wild-type ribosome), % (no concentration beside the values);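 active = significant combined selectivity score with lowered wild-type GFP, culture density cut under 30%, mutant RFP and density less affected; inactive = any of these conditions unmet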; also: one replicate is shown; some compounds called inactive have numbers as strong as hits
Beta cell apopt = inhibitors of cytokine-induced beta cell apoptosis, primary screen, luminescence. INS-1E cytokine-induced death, ATP luminescence, 48 h; percent of positive-control rescue, neutral wells zero. protection from apoptosis, % (test concentration not listed). 0.8% of 300,000 active;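 active = all replicates at 75% or more, or half of them and the mean; inconclusive = half reach 75% but not the mean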;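 also: 0% = cytokine-treated negative control wells and 100% = positive control rescue; higher means more ATP so stronger rescue from cytokine killing; wells of about 40 µL received 100 nL stock; the first replicate is given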
Vif TR-FRET = inhibitors of Vif binding to APOBEC3G peptide, primary screen, biochemical, TR-FRET, GST-Vif 1-94, biotin-A3G peptide, dose response retest (AID 1117319) | Virion infectivity factor (Human immunodeficiency virus type 1 group M subtype B (isolate … | TR-FRET GST-Vif / biotin-A3G peptide binding; higher % means a stronger effect; test concentration not given here; strong numbers were not always called active | inhibition, %, or IC50 in µM where a hit was titrated | 0.57% of 260,000 active;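 active = above the screen mean plus three standard deviations and confirmed in dose response; inconclusive = results disagree or hit not tested in dose response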;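 also: Vif residues 1-94 fused to GST binding biotinylated APOBEC3G peptide 110-148; 0% = full assay without inhibitor and 100% = GST in place of GST-Vif; retest series ran down from 100 µM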
rRNA inh HTS OD600 = second read-out of rRNA inh HTS, no call of its own (marks repeat the call); OD600 change, %; measured here: OD600 growth;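 optical density of the mix in the first replicate; 0 = DMSO median and -100 = no signal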
rRNA inh HTS RFP = recorded beside rRNA inh HTS, whose call it bears; RFP signal change, %; measured here: RFP humanized mutant strains;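 first replicate; 0 = DMSO median and -100 = no signal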
Starred values were filed as active, the others as inactive; ? = inconclusive; . = no result given; & = joins results of further samples. This is a subset, so the mix of outcomes need not match the whole.

SMILES	RanGTP-Imp inh	AF4-AF9 inh	T cruzi inh	Bfl-1 A1 inh	Calb FLC	rRNA inh HTS	rRNA inh HTS OD600	rRNA inh HTS RFP	Beta cell apopt	Vif TR-FRET
O=C(CSc1ncn[nH]1)OCN1C(=O)c2ccccc2C1=O	1.5	.	-7	1.3	1	.	.	.	2	1%
Cc1ccc(C(=O)N(Cc2sccc2C)C2CCS(=O)(=O)C2)cc1 (centres undefined)	-1.3	0.2	-7	0.4	1	-3	-2	0.3	1	.
Cc1ccc(S(=O)(=O)N2CCCC(C(=O)Nc3cccnc3)C2)cc1 (centres undefined)	4.1	.	6	0.4	-3	.	.	.	-8	0%
CCn1c(COc2ccccc2C)nnc1SCC(=O)OC	-0.3	.	5	1.0	-2	.	.	.	.	1%
CC(C(=O)Nc1cccc([N+](=O)[O-])c1)N(c1ccccc1)S(C)(=O)=O (centres undefined)	2.3	2.3	5	-0.7	10	5	2	0.7	1	.
CCOC(=O)c1ccc(NC(=O)/C=C/c2cccs2)cc1	-3.6	8.6	4	-3.8	30	-26	-22	-3.3	5	.
O=C(CSc1ncccn1)Nc1cc(Cl)ccc1[N+](=O)[O-]	2.0	2.0	12	1.2	-1	14	14	2.1	16	.
CC1(C)c2ccccc2-n2c1cc1oc(=O)cc(O)c1c2=O	1.5	0.3	-1	1.3	-1	.	.	.	0	-5%
O=C(C1CCN(S(=O)(=O)Cc2ccccc2)CC1)N1CCCc2ccccc21	-4.5	.	9	0.2	-3	.	.	.	0	-2%
CCOC(=O)C(=O)Nc1ccc2c(c1)OCO2	-1.8	.	-11	-0.1	-4	.	.	.	1	3%
Cc1cc2c(c(/C=C/C(=O)c3ccccc3)c1)OC1(C=C2)Oc2ccccc2C(=O)N1C (centres undefined)	3.7	5.7	43	0.5	-11	-1	-15	-3.8	-5	-4%
Cc1nc(NC(=O)COC(=O)CCS(=O)(=O)c2ccccc2Cl)c(Cl)cc1Cl	1.9	.	-33	0.5	0	.	.	.	-11	67%
C[C@H](NC(=O)CCn1nnc2ccccc2c1=O)C(=O)O	-0.9	1.3	-2	0.6	2	6	5	4.7	-14	0%
Cc1ccc(C)c(NC(=O)c2cnn3ccccc23)c1	-0.2	4.0	-19	-1.3	-5	2	6	3.0	-2	10%
CSCC(=O)NC1CCCc2c1cnn2-c1cc(F)cc(F)c1 (centres undefined)	-1.1	-1.9	-10	-0.2	0	18	8	2.6	-1	.
O=C(O)c1ccc(S(=O)(=O)N2CCN(c3ccccn3)CC2)cc1	5.8	0.3	4	-0.4	2	2	-2	-6.6	0	.
CC(C)c1ccc(CNC(=O)CSCC(=O)Nc2ccc3ccccc3c2)cc1	-1.8	.	29	0.3	0	.	.	.	-4	4%
O=C1C(c2ccncc2)=C(O)c2ccccc21	2.2	.	-14	0.6	-8	.	.	.	6	7%
CC1=C(c2ccccc2)SC2=NCCN21	-0.1	-0.7	17	0.1	0	15	10	1.6	-6	8%
Cc1onc(-c2ccccc2)c1C(=O)Nc1ccncc1	5.7	.	-14	0.9	18	.	.	.	-8	-3%
COc1ccc(-c2csc(NC3OC(=O)c4ccccc43)n2)cc1 (centres undefined)	2.9	.	-2	-1.1	33	-21	-18	22	.	22%
Cc1ccc(CNC(=O)Nc2ccc(F)cc2F)n1C	-1.4	-30	5	-0.8	1	14	14	2.4	-2	-3%
COc1ccccc1C(=O)OCC(=O)Nc1cc(S(=O)(=O)N2CCOCC2)ccc1N1CCCC1	-2.4	0.1	21	0.0	-4	.	.	.	-2	-4%
COc1ccc(OC)c(C2CC(=O)N3CN(c4cccc(Cl)c4C)CSC3=C2C#N)c1 (centres undefined)	-209	-9.9	7	0.6	-5	2	3	-1.2	0	.

3 entries from above, set out differently.
Structure,RanGTP-Imp inh,AF4-AF9 inh,T cruzi inh,Bfl-1 A1 inh,Calb FLC,rRNA inh HTS,rRNA inh HTS OD600,rRNA inh HTS RFP,Beta cell apopt,Vif TR-FRET
C[C@H](NC(=O)CCn1nnc2ccccc2c1=O)C(=O)O,-0.9,1.3,-2,0.6,2,6,5,4.7,-14,0%
COc1ccc(OC)c(C2CC(=O)N3CN(c4cccc(Cl)c4C)CSC3=C2C#N)c1 (centres undefined),-209,-9.9,7,0.6,-5,2,3,-1.2,0,.
Cc1ccc(CNC(=O)Nc2ccc(F)cc2F)n1C,-1.4,-30,5,-0.8,1,14,14,2.4,-2,-3%

A different layout for some results above:
SMILES | RanGTP-Imp inh | AF4-AF9 inh | T cruzi inh | Bfl-1 A1 inh | Calb FLC | rRNA inh HTS | rRNA inh HTS OD600 | rRNA inh HTS RFP | Beta cell apopt | Vif TR-FRET
Cc1ccc(C)c(NC(=O)c2cnn3ccccc23)c1 | -0.2 | 4.0 | -19 | -1.3 | -5 | 2 | 6 | 3.0 | -2 | 10%
CSCC(=O)NC1CCCc2c1cnn2-c1cc(F)cc(F)c1 (centres undefined) | -1.1 | -1.9 | -10 | -0.2 | 0 | 18 | 8 | 2.6 | -1 | .
O=C(O)c1ccc(S(=O)(=O)N2CCN(c3ccccn3)CC2)cc1 | 5.8 | 0.3 | 4 | -0.4 | 2 | 2 | -2 | -6.6 | 0 | .
CC(C)c1ccc(CNC(=O)CSCC(=O)Nc2ccc3ccccc3c2)cc1 | -1.8 | . | 29 | 0.3 | 0 | . | . | . | -4 | 4%

(more compounds)
SMILES	RanGTP-Imp inh	AF4-AF9 inh	T cruzi inh	Bfl-1 A1 inh	Calb FLC	rRNA inh HTS	rRNA inh HTS OD600	rRNA inh HTS RFP	Beta cell apopt	Vif TR-FRET
CCCCC(=O)N(Cc1ccc(F)cc1)C1CCS(=O)(=O)C1 (centres undefined)	1.0	-10.0	-8	0.9	-2	10	3	1.2	-2	-6%
CCOCCCNS(=O)(=O)c1cc2[nH]c3c(c2cc1C)C(=O)CC(C)(C)C3	-1.5	-0.4	3	-0.2	-3	-4	1	-0.4	-3	2%
Cc1ccc(S(=O)(=O)CCc2nnc(NC(=O)c3cnccn3)s2)cc1	0.4	.	-7	0.7	-1	.	.	.	-1	1%
COCCCNC(=O)CS(=O)(=O)Cc1nc(-c2cccc(OC)c2)oc1C	0.7	.	-12	1.1	-11	.	.	.	-3	29%
Cc1cc2ccccc2n2c(SCC(=O)N3CCc4ccccc4C3)nnc12	3.4	.	10	-2.4	-20	.	.	.	-3	25%
Cc1ccccc1C(=O)c1c[nH]c(C(=O)NCC2CCCO2)c1 (centres undefined)	?	.	-19	0.4	-7	.	.	.	-1	-5%
O=C(C1=COCCO1)N1CCN(C(c2ccccc2)c2ccccc2)CC1	2.5	.	12	0.6	2	.	.	.	4	2%
CC(=O)OC1CC(n2ccc(NC(=O)c3ccccc3)nc2=O)OC1CO (centres undefined)	-0.1	.	-1	1.5	0	.	.	.	-6	6%
CCOc1cc(C=O)ccc1OCCSc1ccc(Cl)cc1	-1.6	.	-4	0.7	-8	.	.	.	5	-9%
CCOC(=O)c1c(C)[nH]c(C)c1S(=O)(=O)N(C)CC(=O)Nc1ccccc1OC	3.2	-2.7	4	1.4	-1	2	4	-0.3	-2	.
O=C(O)c1cnn2cc(-c3[nH]ncc3[N+](=O)[O-])cnc12	-3.5	?	-20	2.6	-1	4	10	-3.4	1	-1%
Fc1ccc(C2c3cccn3CCN2C(=S)Nc2cccc(F)c2)cc1 (centres undefined)	2.3	1.8	29	-0.1	-17	-9	-7	0.2	-9	28%
O=C(Cc1c[nH]c2ccccc12)NCc1ccc2c(c1)OCO2	-0.1	.	-13	-0.4	-3	.	.	.	-17	3%
O=C(c1cc2ccccc2c(=O)o1)N1CCCC1	0.2	-3.8	-18	1.1	-8	7	15	-3.8	1	-3%
Cc1cc(C)nc(-n2nc(C)c3c(C(F)F)cc(C)nc32)n1	-0.7	.	-21	-0.6	23	.	.	.	-6	2%
CCOC(=O)Cc1csc(NC(=O)C2CCCN(S(=O)(=O)c3cnc[nH]3)C2)n1 (centres undefined)	.	1.9	.	1.2	.	-8	-15	-1.0	.	?
Cn1c(CNC(=O)CCNC(=O)c2ccc(F)c(F)c2)cc(=O)n(C)c1=O	2.6	-0.6	0	-0.1	.	3	1	1.7	3	.
CCC(=O)N1c2ccccc2NC2=C(C(=O)CC(C)(C)C2)C1c1ccc(O)c(OC)c1 (centres undefined)	9.1	6.4	-12	0.6	-1	19	20	1.9	-10	.
CCOc1ccc(NC(=O)CN2CCC(n3cnc4cc(F)ccc43)CC2)cc1	1.9	0.7	39	-0.4	13	-30	-29	-0.6	.	.
CCCCC(=O)N/C(N)=N/c1nc2ccccc2o1	-0.3	-1.2	-5	-1.4	6	2	7	-0.9	6	.
CCOC(=O)CSc1nc(-c2ccc3c(c2)OCO3)ccc1C#N	2.6	.	1	0.5	0	.	.	.	-1	-7%&-9%
COc1ccc(CNCCSc2nnnn2C)cc1OC	-5.6	.	-12	0.5	?	.	.	.	-7	7%
COc1ccccc1CC(=O)NCC1CCCO1 (centres undefined)	9.7	.	-10	0.7	-1	.	.	.	1	4%
Cc1ccc(S(=O)(=O)N2CCN=C2SCc2ccc(Cl)c(Cl)c2)cc1	-1.3	.	32	1.0	19	.	.	.	18	0%
Cc1cc(N2CCN(C)CC2)nc2ccc(NC(=O)c3ccccc3F)cc12	?	5.7	65*	-0.7	-5	5	0	1.1	0	.
Cc1ccnc(NS(=O)(=O)c2ccc(NC(=O)C3CC3)cc2)n1	.	-0.6	-3	-0.3	.	10	-1	0.9	-1	-2%
COc1cc(/C=C(\C#N)C(=O)Nc2ccccc2)ccc1OCCN1CCOCC1	2.9	-3.2	6	-1.4	-3	2	-2	2.7	3	2%
CCOC(=O)CN1C(=O)S/C(=C/c2cc(C)n(C)c2C)C1=O	4.2	.	8	-2.0	.	.	.	.	-4	4%
CC(=O)Nc1ccc(S(=O)(=O)N2CCCCC2C(=O)O)cc1 (centres undefined)	6.4	1.0	-10	-0.3	4	14	5	0.9	-2	-6%
N[C@@H](Cc1ccccc1)c1nnc(SCc2ccccc2F)o1	?	.	-3	0.1	-10	.	.	.	0	6%
